Bioassay records from PubChem.
FGF22 binding: binders of human FGF22 protein, primary screen, FGF22 synaptogenesis inhibitor project, biophysical, thermal shift, single point. Fibroblast growth factor 22 (Homo sapiens), Q9HCT0. recombinant FGF22 thermal shift, SYPRO orange fluorescence; percent of sucrose octasulfate shift, DMSO zero. calls only at 9.99 µM. 1.5% of 340,000 active;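 active = melting point raised past a set limit in the mean and every replicate; inconclusive = no clear call; three in four hits are not shown here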
Target sequence (Q9HCT0 whole entry, looked up): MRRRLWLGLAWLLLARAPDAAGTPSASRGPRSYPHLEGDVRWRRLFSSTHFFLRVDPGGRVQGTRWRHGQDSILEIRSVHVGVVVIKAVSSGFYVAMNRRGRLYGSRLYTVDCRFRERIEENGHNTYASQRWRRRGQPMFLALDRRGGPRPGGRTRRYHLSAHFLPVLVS
MLL AF4-AF9 inh: inhibitors of AF4 peptide binding to AF9, primary screen, biochemical, AlphaScreen, biotin-AF4 peptide, FLAG-AF9, single point; Protein AF-9 (Homo sapiens), P42568; inhibition, % at 10 µM; 0.47% of 350,000 active; AID 651704, 2012;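 active = every replicate reaching a set inhibition limit, whatever the replicate mean, cut at about 25% in these data; inconclusive = mean inhibition reaches that limit but some replicates miss it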;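 also: 0% = plate neutral control median and 100% = total signal loss; the record names both 10 and 1 µM as test concentration; the first replicate is given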
Target sequence (P42568 whole entry, looked up): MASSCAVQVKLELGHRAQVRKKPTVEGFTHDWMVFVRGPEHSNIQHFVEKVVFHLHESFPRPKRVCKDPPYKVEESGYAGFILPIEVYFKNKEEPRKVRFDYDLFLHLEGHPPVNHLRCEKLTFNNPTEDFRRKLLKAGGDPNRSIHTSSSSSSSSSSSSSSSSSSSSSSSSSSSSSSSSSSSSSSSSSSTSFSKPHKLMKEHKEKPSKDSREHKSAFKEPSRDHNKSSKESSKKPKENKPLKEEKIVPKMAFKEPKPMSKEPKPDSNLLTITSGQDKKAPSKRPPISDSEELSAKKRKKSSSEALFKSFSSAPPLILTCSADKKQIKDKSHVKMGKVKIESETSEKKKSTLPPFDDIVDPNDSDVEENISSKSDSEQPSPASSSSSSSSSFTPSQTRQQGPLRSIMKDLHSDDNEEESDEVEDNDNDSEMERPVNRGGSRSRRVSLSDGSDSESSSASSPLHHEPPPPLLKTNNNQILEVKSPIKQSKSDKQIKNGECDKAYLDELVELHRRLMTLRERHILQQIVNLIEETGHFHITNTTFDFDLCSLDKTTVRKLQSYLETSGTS
Beta apoptosis: inhibitors of cytokine-induced beta cell apoptosis, primary screen, luminescence | INS-1E cytokine-induced death, ATP luminescence, 48 h; percent of positive-control rescue, neutral wells zero | 0.8% of 300,000 active | protection from apoptosis, % (test concentration not listed);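 active = all replicates at 75% or more, or half of them and the mean; inconclusive = half reach 75% but not the mean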;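 also: 0% = cytokine-treated negative control wells and 100% = positive control rescue; higher means more ATP so stronger rescue from cytokine killing; wells of about 40 µL received 100 nL stock; the first replicate is given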
T cruzi inh: inhibitors of intracellular T. cruzi growth, primary screen, luminescence, NIH3T3 host cells; T. cruzi beta-gal in NIH3T3, 90 h; inhibition, % (test concentration not listed); 1.4% of 300,000 active;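 active = mean inhibition across valid replicates above about 55%, limit read from the data; inconclusive = mean below that limit but half or more replicates reach it; inactive = mean below it, under half of replicates reach it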;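 also: signal also drops with host cell toxicity which is not excluded here; 0% = plate median of DMSO wells and 100% = zero luminescence signal; higher percent means less beta-gal luminescence so fewer parasites; stock transfer was 50 nL into about 50 µL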
Calb FLC: C. albicans growth inhibition with fluconazole, primary screen, CaCi-2 strain, Alamar Blue fluorescence. C. albicans CaCi-2 (fluconazole-resistant clinical isolate) + fluconazole, 48 h. growth inhibition, % (test concentration not listed). 0.57% of 300,000 active;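 active = most replicates above 75%; inconclusive = exactly half above 75%; inactive = most below 75%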;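 also: all wells also contain fluconazole at 8 µg/ml as a sub-toxic cotreatment; 0% = median of DMSO wells and 100% = median of geldanamycin control wells; wells of about 8 µL received 7.5 nL stock; the first replicate is given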
RanGTP-Impb inh: inhibitors of RanGTP-importin-beta interaction, primary screen, biochemical, FRET, CFP-Ran, YFP-importin-beta, homogeneous. cell-free CFP-Ran/YFP-importin-beta FRET ratio. inhibition, % (test concentration not listed). 1.1% of 300,000 active;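 active = most replicates above 15%; inconclusive = exactly half above 15%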;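 also: 0% = DMSO wells and 100% = Ran loaded with GDP instead of GTP; wells of about 40 µL received 100 nL stock; the first replicate is given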
ALR inh: inhibitors of human ALR sulfhydryl oxidase, primary screen, biochemical, H2O2 detection, HRP-luminol luminescence, single point | purified ALR, DTT oxidation | inhibition, % (test concentration not listed) | 3.8% of 290,000 active | FAD-linked sulfhydryl oxidase ALR (Homo sapiens), P55789;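 active = mean and each replicate at 75% or more; inconclusive = only one of the two met; inactive = neither met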;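 also: stock transfer was 7.5 nL into about 7.5 µL; 0% = neutral wells and 100% = wells with inactivated enzyme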
Target sequence (P55789 whole entry, looked up): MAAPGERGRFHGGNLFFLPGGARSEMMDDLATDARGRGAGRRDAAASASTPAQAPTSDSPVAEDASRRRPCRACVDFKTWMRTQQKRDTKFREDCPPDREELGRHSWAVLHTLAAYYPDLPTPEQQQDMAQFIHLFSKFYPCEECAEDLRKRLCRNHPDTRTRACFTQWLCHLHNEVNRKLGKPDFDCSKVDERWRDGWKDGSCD
Ecoli rRNA inh: reduced GFP signal of wild-type E. coli, primary screen, bacterial rRNA inhibitor project, GFP/RFP fluorescence, OD600, single point; E. coli WT GFP vs humanized-ribosome RFP mutants, 24 h; stronger effect = lower value; DMSO median 0, no signal -100; GFP signal change (wild-type ribosome), % (test concentration not listed); 1.6% of 350,000 active; AID 720706, 2013;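 active = significant combined selectivity score with lowered wild-type GFP, culture density cut under 30%, mutant RFP and density less affected; inactive = any of these conditions unmet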; also: one replicate is shown; some compounds called inactive have numbers as strong as hits
Ecoli rRNA inh OD600: also measured in Ecoli rRNA inh; calls as there; OD600 change, %; measured here: OD600 growth;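 optical density of the mix in the first replicate; 0 = DMSO median and -100 = no signal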
Ecoli rRNA inh RFP: second read-out of Ecoli rRNA inh, no call of its own (marks repeat the call); RFP signal change, %; measured here: RFP humanized mutant strains;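 first replicate; 0 = DMSO median and -100 = no signal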
* hit, by the source's call; i = inactive; ? = inconclusive; / = not tested or not shown. The list is partial; the hit share may differ from the screen's.

SMILES	FGF22 binding	MLL AF4-AF9 inh	Beta apoptosis	T cruzi inh	Calb FLC	RanGTP-Impb inh	ALR inh	Ecoli rRNA inh	Ecoli rRNA inh OD600	Ecoli rRNA inh RFP
O=C(O)CCC(NS(=O)(=O)c1ccc(-c2ccccc2)cc1)C(=O)O (centres undefined)	/	/	-2	-1	-14	0.3	-2	/	/	/
C/C(=N/NC(=O)CNC(=O)c1ccccn1)c1ccccc1	i	-1.2	-6	-39	35	1.6	6	12	11	0.4
COc1cc(CCC(=O)Nc2cccc(C(F)(F)F)c2)cc(OC)c1OC	/	/	/	-2	-8	4.4	-3	/	/	/
O=C(CCNS(=O)(=O)c1ccc(Cl)cc1)Nc1ccncc1	i	-1.1	-8	13	-2	2.0	0	0	1	-0.2
COc1ccc(NC(=O)CSc2nc(C)cc(C)n2)cc1	/	/	3	-7	0	0.4	-9	/	/	/
O=C(c1ccco1)N1CCN(c2ncnc3scc(-c4ccc(F)cc4)c23)CC1	/	/	1	6	-84	8.2	6	/	/	/
Cc1ccc(CN(Cc2ccccc2)C(=S)NCC(=O)NCc2cccnc2)o1	i	4.6	-3	4	-8	0.6	0	0	1	21
COc1ccccc1CNC(=O)C(Cc1ccccc1)NC(=O)c1ccccc1 (centres undefined)	i	-0.5	8	/	/	/	-5	0	3	-3.3
Cc1c(Cl)c(C(=O)NNC(=S)NCc2ccco2)nn1C	/	/	-4	-7	0	2.3	41	/	/	/
[N-]=[N+]=CC(=O)C(O)(c1ccccc1)C(Cl)c1ccccc1 (centres undefined)	i	-1.2	/	-10	-15	1.8	-2	-4	4	-1.0
Cc1[nH]c(C)c(S(=O)(=O)NCc2ccc(Cl)cc2)c1C(=O)N1CCCC1	i	1.9	-3	-3	-6	-1.1	-7	9	9	-0.6
Cc1ccc(-c2nnn(CC(=O)N3CCCCC3)n2)cc1	i	-2.0	3	-8	15	5.2	0	-14	-9	-2.0
CCN(CC)CCCNC(=O)c1cn(C)c2ccc(S(=O)(=O)N(C)C)cc2c1=O	i	-2.2	3	-17	7	-3.3	-6	5	16	0.3
O=C(COc1cccc(Br)c1)Nc1ccc(Cl)c(S(=O)(=O)N2CCOCC2)c1	i	0.2	6	/	/	/	-2	5	-27	-4.8
CCOc1ccc(Oc2c(/C=N/NC(C)=O)c(C)nn2-c2ccccc2)cc1	/	/	-3	-8	3	0.2	-1	/	/	/
O=c1c(-c2ccco2)[n+]([O-])c2ccccc2n1OCc1ccccc1F	/	/	3	12	8	2.4	97*	/	/	/
CCOC(=O)CSC(CC)C(=O)Nc1nnc(CC)s1 (centres undefined)	i	4.7	-3	-8	3	0.7	12	5	20	0.5
COc1ccc(CN2CCN(c3ccccc3OC)CC2)c(OC)c1	i	6.2	-4	6	2	4.2	0	2	7	-0.5
Cc1ccc(-n2ncc3c(NCc4ccco4)ncnc32)c(C)c1	i	3.5	6	/	/	/	33	-8	-14	-0.3
c1ccc(-c2cn3c(n2)CCc2ccc4cccnc4c2-3)cc1	/	/	36	-7	13	-6.0	-11	/	/	/
CCC(C(=O)NCc1ccco1)N(C(=O)CNS(=O)(=O)c1ccc(C)cc1)c1ccccc1F (centres undefined)	i	1.9	1	11	-9	-0.7	/	1	-3	3.7
NC(=O)c1ccc(NC(=O)COC(=O)/C=C/c2cccs2)cc1	/	-1.2	-4	-28	-21	1.6	1	11	7	1.8
O=C(/C=C/c1ccc([N+](=O)[O-])cc1)NCc1cccnc1	/	/	95*	-10	7	-1.9	-14	/	/	/
CCN(CC(=O)Nc1ccc2c(c1)OCCO2)c1nc(-c2cccnc2)nc2ccccc12	/	/	-3	12	19	-2.5	-7	/	/	/
Cc1noc(COc2ccc(OCc3nc(C)no3)cc2)n1	/	/	-8	-2	-11	-1.6	1	/	/	/

The results go on:
SMILES	FGF22 binding	MLL AF4-AF9 inh	Beta apoptosis	T cruzi inh	Calb FLC	RanGTP-Impb inh	ALR inh	Ecoli rRNA inh	Ecoli rRNA inh OD600	Ecoli rRNA inh RFP
C=CCN1CC(O)=C(c2ccccc2)C1=N	/	/	-4	-3	19	-5.2	17	/	/	/
O=C(O)c1cc(-c2cccs2)nc2cc3c(cc12)OCCO3	i	-7.0	-2	-7	-1	?	31	7	-12	2.5
c1ccc2[nH]cnc2c1	i	-0.1	-4	1	/	-1.5	-6	6	7	-1.9
CC1=C(C(=O)OC(C)(C)C)C(c2cccc3ccccc23)NC(=O)N1 (centres undefined)	i	1.7	-3	7	0	-3.2	-3	2	4	-0.8
CCCOc1ccc(S(=O)(=O)n2cc(Br)c(=O)[nH]c2=O)cc1	i	-10	2	3	19	3.2	3	-4	-1	-2.0
O=C(CSc1ncnc2sc3c(c12)CCC3)N1CCOCC1	i	-3.9	-1	1	-3	0.5	-21	1	5	-2.7
Cc1ccc(C2(C)NC(=O)N(CC(=O)NC(=O)NC(C)(C)C)C2=O)cc1 (centres undefined)	i	-11	/	-4	-13	-3.5	1	0	2	0.4
O=S(=O)(NOCc1ccc(Cl)cc1)c1ccc(Cl)cc1	i	0.2	/	-6	10	1.4	/	-39*	-15*	0.0*
COc1cccc(N(CC(=O)NCCSc2ccccn2)S(=O)(=O)c2ccccc2)c1	i	-2.2	0	2	5	0.7	/	-3	3	-2.4
CN1CCN(S(=O)(=O)c2cccc(C(=O)Nc3ccccc3N3CCCC3)c2)CC1	i	5.3	-8	3	-2	-2.4	49	-1	6	-1.4
O=C(O)CC1(CC(=O)Nc2ccccc2C(=O)c2ccccc2)CCCC1	i	-11	-1	-5	8	-3.4	-11	5	-7	-1.2
Cc1cc(C)nc(NS(=O)(=O)c2ccc(NC(=S)NC(=O)CC(C)C)cc2)n1	/	/	0	-1	15	-0.8	27	/	/	/
CN1CCN(C(=S)NC(=O)/C=C/c2cccs2)CC1	i	2.1	-5	-6	18	-0.4	5	5	7	5.5
COc1cc(NC(=O)c2ccco2)c(C(=O)O)cc1OC	/	/	-1	-20	15	-1.5	-25	/	/	/
CCCCN(CCCC)c1nc(-c2ccncc2)nc2ccccc12	i	-1.3	/	5	20	-4.7	/	3	5	-0.7
Cc1ccc(NC(=O)NCCN2CCN(C(=O)Nc3ccc(C)cc3)CC2)cc1	i	8.8	-4	3	0	0.5	1	3	4	-0.5
CC(C)CCN1CN(S(=O)(=O)c2cccs2)c2nc3ccccc3nc21	/	/	2	7	-1	6.2	-12	/	/	/
CCN(Cc1ccccc1)C(=O)CSc1nc(C)cc2c1C(=O)OC2	/	/	4	-9	-9	5.0	0	/	/	/
CCOC(=O)CSC(CC)C(=O)Nc1nnc(C(C)C)s1 (centres undefined)	i	-1.5	-5	1	0	-3.7	3	3	7	-1.7
CC(C)[C@H](NC(=O)c1cccc(S(=O)(=O)N2CCOCC2)c1)C(=O)Nc1nccs1	i	-0.9	-2	5	-15	-2.4	-3	5	9	2.0
O=C(c1ccco1)N1CCN(C(=O)c2ccccc2OCc2ccc(Cl)cc2)CC1	i	-15	-1	6	-3	4.0	-3	-6	-14	4.6
Nc1[nH]ncc1-c1ccc(Cl)cc1	i	-0.4	-3	3	2	-0.5	-47	-4	4	-10
COc1ccc(O)c(C(=O)c2cc(SCC(=O)O)c3nc4sc5c(c4c(=O)n3c2)CCCC5)c1	i	4.3	-2	-3	-4	-11	4	10	6	-0.5
Cc1ccc(S(=O)(=O)N2CCCC2C(=O)Nc2nc3c(s2)CCCC3)cc1 (centres undefined)	/	/	8	18	-14	-1.4	-4	/	/	/
Cc1nc2ccccc2nc1N1CCC(C)CC1	/	/	-4	-5	-3	?	-5	/	/	/

Following part:
SMILES	FGF22 binding	MLL AF4-AF9 inh	Beta apoptosis	T cruzi inh	Calb FLC	RanGTP-Impb inh	ALR inh	Ecoli rRNA inh	Ecoli rRNA inh OD600	Ecoli rRNA inh RFP
CCOc1cc2c(cc1OCC)CN(C(=O)c1cccc(S(=O)(=O)N3CCCC3)c1)CC2	i	0.7	10	/	/	/	/	-19*	-14*	2.1*
COc1cccc(CC(NC(C)=O)C(=O)NC2CCN(C(=O)c3ccc(Cl)cc3)CC2)c1 (centres undefined)	i	-1.6	/	-3	-2	-0.6	/	1	11	-1.2
CCOC(=O)C1=C(CSc2nc3ccccc3s2)NC(=O)NC1c1cccc([N+](=O)[O-])c1 (centres undefined)	i	3.8	0	40	-15	1.4	-17	-1	-5	-0.6
O=C(NCC(=O)N1CCCCCCC1)c1ccccc1Cl	i	0.3	-1	/	/	/	/	7	3	-2.2
COc1ccc(C=O)cc1COc1ccc(F)cc1F	/	/	1	-14	1	7.0	0	/	/	/
CC(=O)Nc1cc2c(cc1C(=O)c1ccccc1)OCCO2	/	/	-2	-5	0	0.5	-2	/	/	/
Cc1ccc(OCCC(=O)OCC(=O)NNC(=O)c2ccccc2)cc1	i	8.0	-8	4	-6	-5.2	-1	6	11	2.4
Cc1nc(S(=O)(=O)Cc2ccccc2)nc2c1CCC2	i	-0.7	/	-13	12	-3.1	2	4	-2	-2.1
CCCCCCCCCCCCCC(=O)O	i	/	3	/	/	/	-1	-5	-10	0.3
NC(=S)N=Nc1ccc(NN=C(N)N)cc1	i	-1.5	33	-20	/	-1.7	98*	-1	18	-2.7
CCCSc1nnc(NC(=O)Nc2ccc(F)cc2)s1	/	/	47	17	-8	0.1	/	/	/	/
Cc1ccc(OCC(=O)NCCNC(=O)c2ccco2)cc1C	i	-3.0	-13	-8	10	4.8	0	-1	-13	2.8
O=C(NCC(=O)N1CCN(S(=O)(=O)c2ccccc2F)CC1)c1ccc2ccccc2c1	i	-2.0	-2	-4	/	4.3	-6	-14	-20	0.0
CCOc1ccc(OCC)c(NC(=O)CSc2nc3c(c(=O)n(C)c(=O)n3C)n2C(C)C)c1	i	3.5	12	-11	-13	-0.1	-21	-27*	-11*	-6.8*
Cc1ccccc1OCC(=O)Nc1ccccc1C(=O)N1CCCCC1	i	-12	-4	14	-1	1.9	86*	-11	-10	-1.0
O=C(Nc1cccc(OC(=O)c2ccco2)c1)c1ccco1	/	/	0	-13	-15	7.0	/	/	/	/
Cn1c(SCC(=O)N=Nc2c(O)[nH]c3ccccc23)nc2ccccc21	/	/	-2	-6	-9	-0.4	-15	/	/	/
CN(CCC(=O)Nc1ccc(Br)cc1)Cc1ccccc1	/	/	-5	14	2	1.6	-8	/	/	/
Cc1ccc(NC(=S)N2CCCC(O)C2)cc1 (centres undefined)	/	13	-5	-8	4	-4.6	3	13	4	1.3
c1ccc(-c2nnc(-c3ccccn3)nc2NC2CCCCC2)cc1	/	/	96*	54	16	4.6	1	-56	-79	-28
COc1ccccc1/C=N/n1c(N)c(S(=O)(=O)c2cccs2)c2nc3ccccc3nc21	/	/	-1	52	8	2.9	-10	/	/	/
